Tg IFNy HTS = inhibitors of Toxoplasma gondii growth with IFN-gamma; Toxoplasma gondii growth in IFN-gamma-treated host cells; active compounds read low; reference of the scale not given here; activity change, negative = inhibition, %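 (about 20 µM by stock and volumes)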; 3.8% of 69,000 active; AID 1259416;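 active = below -70%; inconclusive = fit judged invalid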;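 also: host cells are HeLa cells infected with Toxoplasma gondii; parasite growth read as luciferase light; one replicate is shown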
Active calls of the source: *; i = inactive; ? = inconclusive; & = joins results of further samples. Some of the compounds tested (hit frequency here may not be typical).

Structure	Tg IFNy HTS
Cc1noc(C)c1Cc1ccc(C(=O)NC(C)Cc2ccccn2)o1 (stereo not drawn)	7
c1ccc(Cn2ncc3c2ncn2c(CSc4nc5ccccc5o4)nnc32)cc1	13
CCOC(=O)c1[nH]ncc1[C@@H]1C[C@H]2CN(Cc3ccccc3OC)C(=O)[C@]23CCCN13	-19
Cc1ccc(-c2ccc3nc(CO)[nH]c3c2)c(-n2cccn2)c1	-24
COc1ccc2c(c1)NC1(CCN(S(=O)(=O)c3cnn(C(F)F)c3C)CC1)c1cccn1-2	-10
Cc1cccc(C)c1NC(=O)CN1CCN(CCCC(c2ccc(F)cc2)c2ccc(F)cc2)CC1	-53
CCOc1ccc(NC(=O)C(=O)NCCc2csc(-c3ccc(C)cc3)n2)cc1	16
Cc1nc(-c2ccc(F)cc2)sc1-c1ccc(SCc2cccc3ccccc23)nn1	0
CO[C@H](CN(C)CC1CCOCC1)[C@H](C)CN(C(=O)Nc1ccc(F)cc1)[C@@H](C)CO	58
CCCCOc1ccc(C(=O)Nc2ccc(F)cc2F)cc1	154
COC(=O)c1sc(-c2cccs2)cc1NC(=O)CSCC(=O)O	-18
CC1=NOC(C)(C(=O)Nc2ccc(Cl)c(C(=O)OC(C)C)c2)C1 (stereo not drawn)	4
COc1cccc(-c2noc(-c3c(O)c4ccc(F)cc4n(C)c3=O)n2)c1	66
O=C(C(=O)N1CCC(c2ccccc2Cl)C1)c1ccco1 (stereo not drawn)	-5
CNc1nc(C2CCCN(C(C)=O)C2)nc2c1CCN(C(=O)Cc1ccc(F)cc1)C2 (stereo not drawn)	12
Clc1ccc(-n2nnnc2CN2CCOCC2)cc1Cl	-2
COc1ccc(OCC(=O)N2CCC3(CC2)Nc2ccc(Cl)cc2-n2cccc23)cc1	26
CCn1c(=O)c(C(=O)Nc2ccccn2)c(O)c2ccccc21	81
Cc1noc(C)c1S(=O)(=O)N(C)C[C@@H]1OCc2cnnn2CCCC(=O)N([C@@H](C)CO)C[C@@H]1C	272
CCOC(=O)C1C(=O)NC(N2CCN(CC)CC2)=NC1C(C)C (stereo not drawn)	167
O=C(O)c1ccc(S(=O)(=O)NCC2CCCO2)cc1 (stereo not drawn)	9
COc1ccc(NC(=O)N(C)C[C@@H]2OCCCC[C@@H](C)Oc3ccc(NC(=O)c4ccncc4)cc3C(=O)N([C@@H](C)CO)C[C@H]2C)cc1	i
Cn1c(=O)c(=O)n(C)c2cc(NC(=O)CN3CCOCC3)ccc21	2
COc1ccc(CN2CC3(CN(C(C)=O)C3)c3c(n(C)c4cc(OC)ccc34)[C@@H]2CO)cc1	38
O=C(Cn1ncc2c(N3CCCCC3)ncnc21)NCc1ccncc1	-29
Cc1ccc2cccc(N3C(=O)Nc4ccccc4N3O)c2n1	181
O=C1C2CC=CCC2C(=O)N1c1cccc(N2C(=O)C3CC=CCC3C2=O)n1 (stereo not drawn)	-14
C[C@@H]1CN([C@@H](C)CO)C(=O)c2cc(NS(=O)(=O)c3ccc(Cl)cc3)ccc2O[C@@H](C)CCCCO[C@@H]1CN(C)C(=O)CCCN(C)C	67
Cc1cc(Cn2ccnc2-c2cc3ccc(F)cc3[nH]c2=O)on1	7
CCCNC(=O)[C@@H]1[C@@H](CO)[C@@H]2Cn3c(cccc3=O)[C@@H]2N1Cc1cccc(F)c1	-2
COCCn1cc2c(n1)C(CNC(=O)c1cnccn1)OCC2 (stereo not drawn)	-7
CC(=O)c1csc(COc2ccc(Cl)cc2)n1	221
CNC(=O)C[C@@H]1C[C@@H]2CN(S(=O)(=O)c3cccnc3)C[C@@H]2O1	-1
Cc1n[nH]c(C)c1Cc1c(C(=O)O)noc1C	-1
Cc1cc(C)c(NC(=O)CS(=O)(=O)Cc2c(F)cccc2Cl)c(C)c1	27
Cc1cc(C)cc(NC(=O)N2CCN(Cc3nc(-c4ccccc4C)oc3C)CC2)c1	-2

6 compounds drawn at random from the list so far:
Structure	Tg IFNy HTS
CNC(=O)C[C@@H]1C[C@@H]2CN(S(=O)(=O)c3cccnc3)C[C@@H]2O1	-1
CCCNC(=O)[C@@H]1[C@@H](CO)[C@@H]2Cn3c(cccc3=O)[C@@H]2N1Cc1cccc(F)c1	-2
O=C1C2CC=CCC2C(=O)N1c1cccc(N2C(=O)C3CC=CCC3C2=O)n1 (stereo not drawn)	-14
O=C(Cn1ncc2c(N3CCCCC3)ncnc21)NCc1ccncc1	-29
Cc1cc(Cn2ccnc2-c2cc3ccc(F)cc3[nH]c2=O)on1	7
COCCn1cc2c(n1)C(CNC(=O)c1cnccn1)OCC2 (stereo not drawn)	-7

Further results.
Structure	Tg IFNy HTS
COc1ccc(C(NC(=O)c2cc(=O)n(C)c(=O)n2C)c2ccccc2)cc1 (stereo not drawn)	4
COc1ccc(CN2C[C@@H](O)COC[C@H]3O[C@H](CC(=O)N(C)C)CC[C@@H]32)cc1	19
C/C=C/c1ccc2c(c1)O[C@@H](CN(C)C(=O)Nc1ccc(OC)cc1)[C@@H](C)CN([C@H](C)CO)S2(=O)=O	126
Cc1nc(C)c(-c2ccn(S(=O)(=O)c3cc(C(F)(F)F)cc(C(F)(F)F)c3)n2)o1	6
COc1ccc(/C=C2\CC/C(=C\c3ccc(OC)c(OC)c3)C2=O)cc1OC	7
Cn1nc(-c2cccnc2)c2c1NC(=O)CC2c1cnc(N2CCCC2)nc1 (stereo not drawn)	-3
CC(=O)N[C@@H](Cc1ccccc1)C(=O)N1C[C@H]2[C@H](N)c3ccccc3[C@H]2C1	-6
O=C1COc2ccc(-c3csc(NCC4CCCO4)n3)cc2N1 (stereo not drawn)	18
COc1ccc(N2CCOCC2)c2sc(NC(=O)N3CCC(C)(O)CC3)nc12	29
CC(=O)N1[C@H](CNC(=O)CN(C)C)[C@@H](c2ccc(C3=CCCCC3)cc2)[C@@H]1CO	19
Cc1ccccc1-c1cnc2c(c1)C(=O)N([C@@H](C)CO)C[C@H](C)[C@H](CN(C)Cc1ccccc1F)O2	3
CN(C)c1ccc(CN2CCC(c3cc4c(ncn4C)c(-c4ccccc4)n3)CC2)cc1	-20
COc1ccc(OCc2nn3c(-c4cccs4)nnc3s2)cc1	-69
O=C(OCC(=O)c1cccs1)c1cccc(C(=O)OCC(=O)c2cccs2)n1	-37
Cc1ccc(CN(C(=O)c2cn(-c3ccccc3)nn2)C2CCCC2)s1	28
CN1CCC(=NOC(=O)Nc2cccc(C(F)(F)F)c2)CC1	-46
O=C(c1cn(-c2ccccc2)nn1)N(C/C=C/c1ccccc1)C1CC1	76
CCS(=O)(=O)N1CC[C@@H]2[C@@H]1CCC(=O)N2CC1CC1	2
N=C(N)SCCc1ccc(OCc2ccc([N+](=O)[O-])cc2)cc1	5&-15
COc1ccc(CCn2cnc(-c3ccccc3)c2-c2cnn(C)c2)cc1O	-3
O=C(C[C@@H]1C=C[C@@H](NC(=O)Cc2cccnc2)[C@@H](CO)O1)NCc1ccc2c(c1)OCO2	-43
CCN1CCC2(c3ccccc3)CCN(C(=O)C3CC3)CC12 (stereo not drawn)	32
COc1ccccc1N(Cc1nc(-c2ccccc2)oc1C)S(=O)(=O)c1cccs1	-46
COCCn1c(C)c(C)c2cc(NC(=O)C3(c4ccccc4F)CCOCC3)ccc21	-3
Cc1ccc2c(c1)C1(C(=O)N2)N2CCCC2C(C(=O)c2ccc3ccccc3c2)C12C(=O)Nc1ccccc12 (stereo not drawn)	55
COc1ccc(OCC(=O)Nc2cc(C(F)(F)F)ccc2N2CCOCC2)cc1	-47
CCOC(=O)c1cnc(N2CCOCC2)nc1N	185
CCC1CCCCN1CCCNC(=O)C1=C(C)C(=O)OC12CCN(C(C)=O)CC2 (stereo not drawn)	52
Cc1cc(=O)[nH]c(SCc2nnc(-c3ccccc3)o2)n1	18
CCOc1ccc(C(=O)N2CCC(C)CC2)cc1	13
CN(CCCN1CCCCCC1)Cc1ncc[nH]1	1
CO[C@@H](CN(C)Cc1ccc(-c2ccccn2)cc1)[C@H](C)CN(C(=O)Nc1ccc(F)cc1)[C@H](C)CO	19
O=S(=O)(NCCCc1nc2ccccc2s1)NCc1ccccc1	-2
O=C(C[C@@H]1CC[C@H]2NC[C@@H](O)COC[C@@H]2O1)Nc1nccs1	-1
CN(C)CCNC(=O)c1cc(-c2cnc(N3CCOCC3)nc2)cn1C	5
CCc1ocnc1C(=O)Nc1c(C)cnn1C(CC)CC	-1
COc1cc(SC)ccc1C(=O)NC(C)C	21
CNC(=O)C[C@H]1CC[C@@H]2[C@H](COc3ccc(NS(=O)(=O)c4ccc(F)cc4)cc3C(=O)N2C)O1	16
C/C=C/c1ccc([C@H]2[C@@H](CO)N(S(=O)(=O)CC)[C@H]2CN(C)C(=O)CC)cc1	16
Cc1nn(CC(C)C)cc1S(=O)(=O)NCc1noc(-c2ccc(Cl)cc2)n1	-20
O=C(Cc1cccnc1)N1CC(=O)N2[C@@H](CO)[C@H](c3ccc(C4=CCCCC4)cc3)[C@@H]2C1	-17
CCc1ccc(-c2noc(-c3c(O)c4ccc(F)cc4n(C)c3=O)n2)cc1	32
C[C@H](CO)N1C[C@H](C)[C@H](CN(C)S(=O)(=O)c2ccc(Cl)cc2)Oc2ccc(NC(=O)Cn3cnnn3)cc2CC1=O	5
COc1ccc2[nH]c(CNC(=O)c3cc(NC(C)=O)ccc3Cl)cc2c1	0
CN(C)C(=O)c1ccc(-c2ccc3c(c2)[C@@H]2[C@@H](CCN2C(=O)C2CCCC2)[C@@H](CO)N3C)cc1	-35
CC(NC(=O)c1cc2n(n1)CCCN(C)C2)c1ccccc1C(F)(F)F (stereo not drawn)	-9
Cc1ccc(NC(=O)N2CCN(Cc3nc(-c4ccccc4C)oc3C)CC2)cc1F	4
CC(=O)OC1=CCC2C3CC[C@@]4(C)CC(OC(C)=O)CCC4(C)C3C(OC(C)=O)CC12C (stereo partly drawn)	-30
CC(C)Nc1ccnc(C2COCCN2C(=O)c2ccccc2)n1 (stereo not drawn)	-2
CO[C@H]1CN(C)C(=O)c2cccc(C#N)c2OCC[C@@H]2CC[C@@H](OC)[C@H](CN(C)C(=O)[C@H]1C)O2	-39
C[C@@H]1CN([C@@H](C)CO)C(=O)CCCn2nncc2CO[C@H]1CN(C)S(=O)(=O)c1ccc2c(c1)OCCCO2	199
Cc1nc(-c2ccccc2)sc1CCNC(=O)c1ccc([N+](=O)[O-])cc1	i
Cc1cc(C)cc(C(=O)NCCc2csc(-c3cccc(F)c3)n2)c1	-53
O=C(C[C@H]1CC[C@H]2NC[C@H](O)COC[C@@H]2O1)NC1Cc2ccccc2C1	-1
O=C(CSc1n[nH]c(=O)n1-c1ccc(Cl)cc1)N1CCC(C(F)(F)F)CC1	23
CCCC(=O)Nc1ccccc1NC(C)=O	5
CC(C)(C)SCCNC(=O)c1cccs1	-16
Cc1ccc(CNCC2OCCc3cn(C)nc32)o1 (stereo not drawn)	-20
COc1ccc(Cl)cc1NC(=O)N1CCc2c(nc(C)[nH]c2=O)C1	4
Cc1cc(C)c2c(CC(=O)N3CCCC(c4ccn[nH]4)C3)coc2c1 (stereo not drawn)	-16

3 compounds from above, sorted by heavy-atom count, lowest first:
Structure	Tg IFNy HTS
Cc1ccc(CNCC2OCCc3cn(C)nc32)o1 (stereo not drawn)	-20
COc1ccc(Cl)cc1NC(=O)N1CCc2c(nc(C)[nH]c2=O)C1	4
Cc1nc(-c2ccccc2)sc1CCNC(=O)c1ccc([N+](=O)[O-])cc1	i

Going on with the list.
Structure	Tg IFNy HTS
CCOc1ccccc1C(=O)N1CCC2(CC1)NC(=O)c1ccccc1N2CC	73
CCCNC(=O)N1CC2(CN(C(=O)CN(C)C)C2)c2c(n(C)c3cc(OC)ccc23)[C@@H]1CO	-51
Cc1ccccc1-c1ncc(-c2nccn2CCc2n[nH]c(=O)[nH]2)s1	-25
Cc1oncc1C(=O)N1CCCn2cnc(COC(C)C)c2C1	23
COc1ccc2c3c([nH]c2c1)[C@H](CO)N(C(C)=O)CC31CCN(C(=O)Nc2ccc(F)cc2F)CC1	-5
O=C(C[C@H]1C=C[C@@H](NC(=O)c2ccncc2)[C@H](CO)O1)NCC1CC1	-42
CCOC(=O)Cc1c(SC)c2ccccc2n1C	0
Cc1ccc(C2(O)CCN(C(=O)c3cc(=O)[nH]c4ccc(F)cc34)CC2)nc1	3
O=C(CCn1c2c(c3ccccc31)CCCC2)N1CCC(c2ccncc2)CC1	-4
N#C[C@H]1[C@H](c2ccccc2C2=CCCC2)[C@@H](CO)N1C(=O)C1CCOCC1	20
COCCCN(C(C)c1ccccn1)S(=O)(=O)c1ccc2[nH]c(=O)ccc2c1 (stereo not drawn)	76
Cc1cccc(Nc2nc(C(=O)NCCC3=CCCCC3)nc3ccccc23)c1	-51
O=C1C[C@H]2CC[C@@H](CN1)N2C(=O)c1cc(COc2cccc(F)c2)[nH]n1	0
C=CCn1c(=O)c(-c2nc(-c3ccccc3Br)no2)c(O)c2ccccc21	-6
CC(C)Cc1cc(CN2CC(C(=O)O)CC2=O)no1 (stereo not drawn)	1
COc1cccc(-c2ccc(NC(=O)C3CCCN(C(=O)c4[nH]c(C)cc4C)C3)cc2)c1 (stereo not drawn)	?
O=C(NCC1CC(=O)N(C2CC2)C1)C(=O)c1cccs1 (stereo not drawn)	-46
Cc1ccc(C2=NC3(CCN(CC(=O)Nc4ccc(Cl)cc4)CC3)NC2=O)cc1	40
O=C(NCCc1csc(-c2cccc(F)c2)n1)c1ccc2c(c1)OCO2	-6
Clc1ccc2nc3c(nc2c1)Nc1ccccc1S3	450
CNc1ncccc1C(=O)N1CC[C@@H](c2ccc3ccccc3c2)[C@H](O)C1	6
Cc1cc(NC(=O)CCC(=O)N(CC(=O)NCC2CCCO2)Cc2ccco2)no1 (stereo not drawn)	-36

Bioassay records as filed in PubChem BioAssay.
